Anthrax LT inh: qHTS Assay for Anthrax Lethal Toxin Internalization | Cells, anthrax lethal toxin internalization, FRET ratio (460/530) | Potency, µM (titrated, usually from 40 µM), for the others: at the highest dose activity change, negative = inhibition, most hits filed as inhibitors | hit rate 0.67% among 70,000 | AID 912, 2007; active = well fitted falling ratio curve with the 530 nm signal flat; inconclusive = other ratio curves, or a change in one channel alone; inactive = flat curves in the ratio and both channels; the % refers to the ratio; further: on the % scale 0 is the no-effect control and ±100 the full control effect; nearly all actives have a fitted effect of over 50% in size; tested in ME-180 cells; beta-lactamase reporter
SmPrx2 inh: Schistosoma Mansoni Peroxiredoxins (Prx2); Potency, µM; S. mansoni Prx2 activity coupled to TGR/GSH (TGR is thioredoxin glutathione reductase), NADPH fluorescence loss, qHTS; some inactives read as strong as hits; AID 448, 2006; Schistosoma mansoni peroxiredoxin 2 (Prx2); hit rate 0.07% among 65,000; active means full or partial inhibition curve with a strong effect at the top dose; inconclusive means weaker partial or single-point curve; inactive means no accepted curve; further: series up to 57 µM; many of its hits are not listed in these tables
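qHTS, coupled TGR/Prx2 format; 15 min compound preincubation at RT; reaction started with H2O2 (2.5 mM aliquot); kinetic NADPH fluorescence decrease, ex 365/em 450 nm.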
An asterisk follows results filed as active; ? = inconclusive; . = no result given; & = joins results of further samples; [ ] = another dose, or the depositor's remark. Potency means the concentration at half of the fitted maximal effect. An excerpt (hit frequency here may not be typical).

SMILES | Anthrax LT inh | SmPrx2 inh
C=CCN1C(=O)C2C(C(=O)NC)C3(C)C=CC2(O3)C1C(=O)NCc1ccc(OC)cc1 (stereo not given) | 1% | >57
COc1ccc(CNC(=O)C(c2ccco2)N(Cc2cccs2)C(=O)Cc2cccs2)cc1 (stereo not given) | ? | >57
CCN1CCN(CCNC(=O)c2ccc(CS(=O)(=O)c3c(Cl)cccc3Cl)o2)CC1 | -12% | >57
COc1ccc(-c2noc(COc3ccccc3OC)n2)cc1OC | ? | >57
COC(=O)C1C(c2ccccc2)C(C(=O)N2CCN(C)CC2)C1c1ccccc1 (stereo not given) | -10% | >57
Cc1ccc(C(C)NC(=O)c2cc(C)oc2C)cc1 (stereo not given) | 10% | >57
COc1ccc2[nH]c(=O)c(CN(Cc3ccc(C)cc3)Cc3nnnn3CC3CCCO3)cc2c1 (stereo not given) | 0% | >57
COc1ccc(-c2csc(NC(=O)C3CCCO3)n2)cc1 (stereo not given) | -17% | >57
CC(=O)N1CCc2cc(S(=O)(=O)CCC(=O)N3CCN(C(=O)c4ccco4)CC3)ccc21 | 6% | >57
COc1ccc(CNC(=O)CSc2nnc(-c3ccc(NC(C)=O)cc3)n2C)cc1 | 14% | >57
O=C(O)CCCC[C@H]1SC[C@H]2NC(=O)N[C@@H]21 | 3%[3.58 µM] | >57
CN1CCc2cccc(Cl)c2CC1 | -10% | >57
Cn1nc(-c2ccc(N3CCOCC3)c(NS(=O)(=O)c3ccccc3)c2)c2ccccc2c1=O | -3% | >57
COC(=O)CSc1nc2cc(Cl)ccc2c(=O)n1C1CCCC1 | -2% | >57
CC(=O)Nc1ccc(S(=O)(=O)N(C)c2ccc(O)cc2)cc1 | 4% | >57
COc1ccc(NC2=NCCC(=O)N2Cc2cccs2)cc1 | -16% | >57
COc1ccccc1CNC(=O)COC(=O)c1ccc(NC(N)=O)cc1 | 0% | >57
Cc1ccc2oc(=O)c3cnn(CC(=O)NCCC(C)C)c3c2c1 | -4% | >57
CN(C)C(=O)c1ccc(-c2cncnc2NCCc2cnc[nH]2)cc1 | -1% | >57
Cn1c(=O)c2c(nc(Oc3ccc4c(c3)OCO4)n2Cc2ccc(Cl)cc2)n(C)c1=O | 1% | >57
CCOC(=O)NC1C=CS(=O)(=O)C1 (stereo not given) | 3% | >57
Cc1ccc(-c2nc(CS(=O)CC(=O)N3CCN(c4ncccn4)CC3)c(C)o2)cc1 (stereo not given) | -18% | >57
CCOC(=O)c1c(Nc2ccccc2N)cc(C)nc1C | ? | >57
CCn1nc(C(=O)Nc2ccc(S(=O)(=O)Nc3nccs3)cc2)c2ccccc2c1=O | ? | >57
O=C(c1ccc2snnc2c1)N1CCN(c2ccccn2)CC1 | 1% | .

Looked up above:
CC(=O)N1CCc2cc(S(=O)(=O)CCC(=O)N3CCN(C(=O)c4ccco4)CC3)ccc21 | SmPrx2 inh = >57
COc1ccc(CNC(=O)CSc2nnc(-c3ccc(NC(C)=O)cc3)n2C)cc1 | SmPrx2 inh = >57
Cc1ccc(C(C)NC(=O)c2cc(C)oc2C)cc1 (stereo not given) | SmPrx2 inh = >57
CC(=O)Nc1ccc(S(=O)(=O)N(C)c2ccc(O)cc2)cc1 | Anthrax LT inh = 4%

New compounds follow:
SMILES | Anthrax LT inh | SmPrx2 inh
CC(C)c1ccc(N2C(=O)[C@@H]3Cc4ccccc4CN3C2=O)cc1 | -6% | >57
CS(=O)(=O)N1CCC2(CC1)CN(C(=O)Nc1cccc(C#N)c1)C2 | ? | >57
C=CCn1c(C)c(C(C)=O)c(N2CCOCC2)nc1=S | -11% | .
COc1cc(C)nc(NCc2ccccc2)n1 | -1% | >57
Cc1nc2nc(C)n(-c3ccccc3)c2s1 | -7% | >57
C(=N\c1nccs1)/Nc1nccs1 | 3% | >57
CCN(C(=O)Cn1c(=O)oc2ccccc21)c1cccc(C(F)(F)F)c1 | 4% | >57
CCOc1ccc2nc3sc(C(=O)N4CCN(C)CC4)c(N)c3cc2c1 | -10% | >57
Nc1nc(Nc2ccccc2)nc2ccccc12 | -8% | >57
Cc1n[nH]c(C)c1SCC(=O)Nc1ccc(F)cc1 | ? | >57
Cc1cc(C)n(-c2nc3ccccc3c(=O)n2OC2CCCCC2)n1 | 6% | >57
CC(=O)OCC1OC(C#Cc2ccccc2)C=CC1OC(C)=O (stereo not given) | 10%&4%[8 µM] | .
COc1ccc(C)cc1NC(=O)CN1CCN(S(=O)(=O)c2ccc(C(C)C)cc2)CC1 | 2% | >57
Nn1c(SCC(=O)NC(=O)NC2CCCC2)nnc1-c1ccccc1F | 6% | >57
CCSc1nnc(-c2cccc(S(=O)(=O)N(CC)CC)c2)n1Cc1ccccc1 | ? | >57
CCN(CC)c1ccc(C=N/C(C#N)=C(\N)C#N)cc1 | -27% | >57
CC(C)(C)n1nc2c(c1NC(=O)c1ccco1)CS(=O)C2 (stereo not given) | 3% | >57
COc1ccc(C(=O)CSc2nnc(-c3ccccc3)o2)cc1 | -4% | .
O=c1c(-c2ccccc2)nc2cncnc2n1-c1ccccc1 | ? | >57
CCCC(=O)c1cc(-c2nc3ccccc3n2C)n(C)c1 | 4% | >57
COc1ccccc1N1CCN(C(c2ccc(C)cc2)c2nnnn2C(C)C)CC1 (stereo not given) | 15% | >57
COc1ccc(-c2noc(CN(C)S(=O)(=O)c3ccc(Cl)cc3)n2)cc1OC | 13µM* | >57
Nc1ccccc1C(=O)Nc1cccc(C(=O)O)c1 | 2% | >57
O=C(Nc1ccc(Cl)cc1)N1CCC(c2nc(-c3ccc(F)cc3)no2)CC1 | -13% | >57
CCOc1ccc2nc(NCCNS(=O)(=O)c3ccccc3)c(C#N)cc2c1 | ? | >57
(more compounds)
SMILES | Anthrax LT inh | SmPrx2 inh
CCc1cc2c(NCc3ccco3)ncnc2s1 | 8% | >57
O=C(NCc1ccccc1)[C@H]1C[C@@H]1[C@H](NP(=O)(c1ccccc1)c1ccccc1)c1ccccc1 | ? | >57
CCN(CC)C(=O)CN1C(=O)C2CC=C(Cl)CC2C1=O (stereo not given) | 13% | >57
CC(=O)N1CCC[C@@]2(CCN(Cc3nccs3)C2)C1 | 8% | >57
CCOC(=O)c1cc(NC(=O)c2cc(C)on2)cc(C(=O)OCC)c1 | 0% | >57
Cn1nc(N)c2c1N=P(N1CCOCC1)(N1CCOCC1)N=C2c1ccccc1 | -7% | >57
Cc1ccc(C2NC(=O)c3c(sc4c3CCN(C)C4)N2)s1 (stereo not given) | 15% | >57
CC1(C)CC2CC(C)(CN2C(=O)COC(=O)c2ccc(Cl)cc2N)C1 (stereo not given) | ? | >57
CCOC(=O)c1nnn(-c2nonc2N)c1CNC(C)C | 1% | >57
COCCn1c(=O)cnc2cnc(Oc3ccccc3)nc21 | -2% | >57
CCOC(=O)N1CCC(N2CCN(S(=O)(=O)c3ccc(NC(C)=O)cc3)CC2)CC1 | -7% | >57
O=C(Oc1cccc2cccnc12)c1ccc(Br)o1 | 8% | >57
N#CC(Br)Br | -1% | .
CCCCN(CCCC)C(=O)CSc1nnc(-c2cc(OC)c(OC)c(OC)c2)o1 | -10% | >57
O=C(NCc1cccs1)C1CC(c2ccccc2O)=NO1 (stereo not given) | 15% | >57
CCOc1ccc(C(=O)NCc2ccncc2)cc1 | 4% | >57
CCCCn1c(SCC(=O)Nc2cc(C)on2)nc2c1c(=O)n(C)c(=O)n2C | -5% | >57
CC1CCCC(C)N1C(=O)CSc1nnc(CSc2ncccn2)n1C (stereo not given) | 10% | >57
CCN1CCN(Cc2nc3c(c(=O)[nH]c(=O)n3C)n2Cc2ccccc2Cl)CC1 | 6% | >57
CCCC(=O)c1ccc(N2CCN(C(=O)OCC)CC2)c(F)c1 | -3% | >57
CC(C)(OO)c1ccccc1 | 3% | .
Cn1c(=O)c2c(nc(CN3CCc4ccccc4C3)n2Cc2ccc(F)cc2)n(C)c1=O | ? | >57
O=C(Nc1cccc(OC(=O)N2CCOCC2)c1)N1CCOCC1 | -4% | >57
CN(C)S(=O)(=O)c1ccc(C(=O)OCC(=O)NC(=O)NCc2ccccc2)cc1 | 7% | >57
Cc1ccc(CNC(=O)c2nnn(-c3cccc(C)c3)c2N)cc1 | ? | >57
Next section:
SMILES | Anthrax LT inh | SmPrx2 inh
O=C(Nc1ccccn1)NC1CCS(=O)(=O)C1 (stereo not given) | -8% | .
O=C(Nc1c2c(nn1-c1ccc(Cl)cc1)CS(=O)(=O)C2)c1ccc2c(c1)OCO2 | ? | >57
O=C(O)CCc1n[nH]c(=S)[nH]c1=O | 8% | >57
COc1ccc(OC)c(NC(=O)c2cc(S(=O)(=O)NCc3ccco3)ccc2F)c1 | ? | >57
CCOc1ccccc1Oc1ccc(C(F)(F)F)cn1 | 3% | >57
S=c1[nH]nc(-c2ccc(Br)cc2)n1Cc1ccco1 | ? | >57
CCOC(=O)c1c(N)nn(C(=O)C(C)(C)C)c1-c1ccccc1 | -1% | >57
O=C(CSc1nnc(-c2ccccc2)o1)N1CCOCC1 | -20% | >57
CCOC(=O)N1CCN(S(=O)(=O)c2ccc(F)c(C(=O)Nc3cccc(C)c3C)c2)CC1 | . | >57
Cn1c(=O)[nH]c(=O)c2c1nc(SCC(O)CO)n2Cc1ccccc1Cl (stereo not given) | -12% | >57
Cc1ccc(S(=O)(=O)N[C@H]2COC(=O)CC=C[C@@H](C)[C@H]3C=C[C@H](O)[C@@H](COC(=O)CC=C[C@H]2C)O3)cc1 | 11%&-6%[8 µM] | .
CCn1nc(C(=O)N2CCN(Cc3ccc4c(c3)OCO4)CC2)c2ccccc2c1=O | 3% | >57
CCCN1C2CCCC1CC(NC(C)=O)C2 (stereo not given) | 7% | >57
CCOC(=O)CCN1C(=O)[C@H]2[C@H]3[C@H](O)[C@H](O)C/C(=N/OC/C=C(\C)CCC=C(C)C)[C@H]3CC[C@@H]2C1=O | 2%[8 µM] | .
CCCn1c(C)cc(C(=O)COc2ncnc3sccc23)c1C | 7% | >57
COc1ccc(OC)c(S(=O)(=O)N(C)CC(=O)Nc2ccccc2OC)c1 | 5% | >57
CCOc1ccc(C2SCC(=O)N2c2c(C)n(C)n(-c3ccccc3)c2=O)cc1 (stereo not given) | 13% | >57
O=C(CSc1ncn(-c2ccccc2)n1)NCc1ccccc1 | -4% | >57
C=CCNc1ncnc2c1[nH]c1ccccc12 | 26% | >57
Cc1ccc(OCc2occc2C(=O)O)cc1 | 3% | .
COc1c(F)c(F)c(C(=O)Nc2ccccc2N2CCN(C(C)=O)CC2)c(F)c1F | ? | >57
O=[N+]([O-])c1cc([As](=O)(O)O)ccc1O | -1%[3.58 µM] | ?
COc1ccc(Cl)cc1N1C(=O)C2CCCN2C1c1ccccc1F (stereo not given) | -21% | >57
Oc1ccc2ccccc2c1/C=C\c1ccc2c(Br)cc(Br)c(O)c2n1 | ? | >57
O=C(O)CCN1C(=O)c2ccc(NC(=O)c3cccs3)cc2C1=O | -3% | >57

Full records from above.
CCCn1c(C)cc(C(=O)COc2ncnc3sccc23)c1C reads Anthrax LT inh: 7%; SmPrx2 inh: >57
CCOc1ccccc1Oc1ccc(C(F)(F)F)cn1 reads Anthrax LT inh: 3%; SmPrx2 inh: >57
COc1ccc(OC)c(NC(=O)c2cc(S(=O)(=O)NCc3ccco3)ccc2F)c1 reads Anthrax LT inh: ?; SmPrx2 inh: >57

As a short view, part of the list above.
SMILES | Anthrax LT inh | SmPrx2 inh
C=CCN1C(=O)C2C(C(=O)NC)C3(C)C=CC2(O3)C1C(=O)NCc1ccc(OC)cc1 (stereo not given) | 1% | >57
COc1ccc(CNC(=O)C(c2ccco2)N(Cc2cccs2)C(=O)Cc2cccs2)cc1 (stereo not given) | ? | >57

The listing continues:
SMILES | Anthrax LT inh | SmPrx2 inh
CS(=O)(=O)N(CC(=O)NCCC1=CCCCC1)c1ccc2c(c1)OCO2 | -2% | >57
CNc1nc(C)c(C(=O)OCc2ccccc2)s1 | -9% | >57
O=C(CS(=O)(=O)Cc1ccccc1)N1CCN(c2cccc(C(F)(F)F)c2)CC1 | -23% | >57
COc1ccccc1Cn1c(=O)c2ccccc2n2c(Sc3ncnc4sccc34)nnc12 | ? | >57
O=C(CC12CC3CC(CC(C3)C1)C2)N1CCCOC1 | -4% | >57
Nc1ccccc1S(N)(=O)=O | -1%[3.58 µM] | >57
O=c1[nH]c(Cc2ccccc2)nc2c1oc1ccccc12 | 8% | >57
O=C(CN1C(=O)C2CC=C(Cl)CC2C1=O)Nc1ccc(C(=O)O)cc1 (stereo not given) | -13% | >57
O=C(Nc1nc2n(n1)C(c1ccccc1)C=C(c1ccccc1)N2)c1ccco1 (stereo not given) | -31% | >57
C1C[C@@H]2CN(CCCN3CCOCC3)[C@@H](C1)O2 | ? | >57
CC(=O)c1ccc(N2CCN(C(=O)c3ccc(Br)cc3)CC2)c(F)c1 | ? | .
OC(C#CCN1CCCC1)c1ccccc1 (stereo not given) | -5% | >57
CCCCn1c(O)c(C=NCCCn2ccnc2)c(=O)[nH]c1=O | -13% | >57
CCOC(=O)N1CCC(NC(=O)c2cc(C(=O)NCc3ccc(F)cc3)ccc2CO)CC1 | 16% | >57
CCC(=O)OCN1C(=O)C=CC1=O | 12%[8 µM] | >57
COc1ccccc1-n1nnnc1SCc1cc2c(cc1Br)OCO2 | -11% | >57
Cc1ccccc1CNc1ncnc2c1ncn2[C@@H]1O[C@@H](CO)[C@H](O)[C@@H]1O | ? | >11
N#Cc1nc(Cc2cccc3ccccc23)oc1NCCCn1ccnc1 | 6% | >57

Source: PubChem BioAssay (National Center for Advancing Translational Sciences (NCATS))
